Screening data deposited in PubChem BioAssay by several laboratories.
HSV replic up – enhancers of HSV replication in host cells, fold increase, host cell viability | HSV replication augmentation in cells | maximum fold increase | actives 0.005% (n = 220,000) | AID 1956, 2009;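 active = peak rise of 1.5-fold or more in the series; inconclusive = self-fluorescent or not available for retest; tested in PC3 cells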;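 note: first round at 10 µM; read as green reporter fluorescence; hits show the peak of a series up to 25 µM; 1 = signal of infected wells without compound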
INS promoter inh – inhibitors of insulin promoter-driven GFP, primary screen, imaging, TRM-6 cells (human fetal islet line), eGFP reporter, cell count; actives 0.9% (n = 130,000); inhibition, % at 2 µM; reporter expression induced with tamoxifen;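 active = inhibition above the mean plus 3 SD, with well images judged a real hit on visual review, cut at about 60% in these data, passing the limit was not always enough; inconclusive = inhibition over the cutoff but images rejected on review; inactive = inhibition not above the cutoff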
PKD1 kinase inh – inhibitors of human PKD1 kinase, biochemical, fluorescence polarization. PKD1 kinase fluorescence polarization assay. actives 0.056% (n = 200,000). inhibition, %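 (about 10 µM by stock and volumes)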;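 active = inhibition of 50% or more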;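 note: controls were vehicle for no effect and a reference inhibitor for full effect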
Target sequence (Q15139 whole entry, looked up): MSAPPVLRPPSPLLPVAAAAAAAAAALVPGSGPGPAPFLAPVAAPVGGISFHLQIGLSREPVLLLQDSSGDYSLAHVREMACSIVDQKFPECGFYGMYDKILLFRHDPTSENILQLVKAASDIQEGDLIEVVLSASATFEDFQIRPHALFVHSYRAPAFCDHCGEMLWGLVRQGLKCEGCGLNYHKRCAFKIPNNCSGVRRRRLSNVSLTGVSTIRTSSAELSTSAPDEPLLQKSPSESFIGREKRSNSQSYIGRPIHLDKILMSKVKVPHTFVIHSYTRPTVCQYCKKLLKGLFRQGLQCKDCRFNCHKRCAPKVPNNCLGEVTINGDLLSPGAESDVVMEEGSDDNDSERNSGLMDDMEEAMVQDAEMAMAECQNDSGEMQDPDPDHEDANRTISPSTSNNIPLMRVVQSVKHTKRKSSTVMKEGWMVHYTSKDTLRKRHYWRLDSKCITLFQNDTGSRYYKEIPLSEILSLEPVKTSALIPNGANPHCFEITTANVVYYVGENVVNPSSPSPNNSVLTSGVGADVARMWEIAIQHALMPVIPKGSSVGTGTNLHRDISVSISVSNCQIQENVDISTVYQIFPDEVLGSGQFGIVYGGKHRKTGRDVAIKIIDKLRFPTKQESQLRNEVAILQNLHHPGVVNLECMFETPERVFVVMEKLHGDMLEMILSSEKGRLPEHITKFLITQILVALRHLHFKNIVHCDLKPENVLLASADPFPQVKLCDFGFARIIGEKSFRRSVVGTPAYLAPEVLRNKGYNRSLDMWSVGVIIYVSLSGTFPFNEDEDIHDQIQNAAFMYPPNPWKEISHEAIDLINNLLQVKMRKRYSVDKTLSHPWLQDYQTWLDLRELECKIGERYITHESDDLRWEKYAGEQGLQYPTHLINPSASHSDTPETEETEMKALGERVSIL
GALR2 ag – GALR2 receptor agonists, primary screen, cell-based | GALR2-expressing cells, agonist activation read-out | activation, %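 (tested at 5 µM)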 | actives 0.48% (n = 140,000) | AID 803, 2007;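 active = above mean plus 3 SD of all compounds, about 5% in these data, not always enough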;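 note: 0% = vehicle buffer wells and 100% = reference agonist at full effect; tested in CHO reporter cells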
RGS16-Gao – modulators of RGS16 binding to Galphao, primary screen, biochemical, human proteins, multiplexed bead flow cytometry; Regulator of G-protein signaling 16 (Homo sapiens) + Guanine nucleotide-binding protein …; bead-based flow cytometry RGS16-Galphao binding, fluorescence; actives lie on both sides; binding response (% of control), % at 10 µM; actives 0.38% (n = 220,000); AID 1441, 2008;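 active = below 25% or above 175%, edge rows of some plates excepted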;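 note: Galphao activated by GDP with aluminum fluoride before binding; 100% = wells without compound and 0% = beads without RGS; some results beyond the cut were filed as inactive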
INS promoter inh cell count – recorded beside INS promoter inh, whose call it bears; normalized cell count, %; measured here: cell count, toxicity; reference of the scale not given here;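 cells exposed to compound for 48 h; stained nuclei by imaging scaled within each plate; lower means fewer cells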
HSV replic up primary fold – recorded beside HSV replic up, whose call it bears; fold increase; compound at 10 µM; measured here: primary screen fold increase 10 uM; tested in PC3 cells;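 GFP signal in the first replicate; 1 = infected wells without compound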
* = called active by the depositor; i = inactive; ? = inconclusive; nt = not tested or not shown.

Every second line gives: GALR2 ag | INS promoter inh cell count | HSV replic up | PKD1 kinase inh | RGS16-Gao | HSV replic up primary fold | INS promoter inh
1) COc1ccc2c(c1)C(NC(C)=O)C(=O)N2C (stereo unspecified)
→ -0.3 | 107.1 | i | 11.1 | 105.4 | 0.97 | -34.4
2) COc1ccc(NC(=O)c2ccc(Cl)nc2)cc1S(=O)(=O)N1CCCCC1
→ nt | nt | i | -0.4 | 97.0 | 0.83 | nt
3) CC(C)c1ccc(NC(=O)COC(=O)C2=COCCO2)cc1
→ -1.4 | nt | i | 10.1 | 186.6 | 0.997 | nt
4) COC(=O)c1oc(-c2ccccc2)nc1C
→ nt | nt | i | -8.4 | 104.1 | 0.97 | nt
5) CCc1ccc(NC(=S)N(CCN2CCCCC2)Cc2ccco2)cc1
→ 0.1 | 92.2 | i | -1.3 | 101.8 | 0.9 | 9.4
6) O=C(O)/C=C/C(=O)N1CCN(c2cccc(Cl)c2)CC1
→ nt | 130.2 | i | -3.6 | 105.6 | 1.01 | 11.1
7) O=C(c1ccccc1)[C@@H]1[C@@H](C(=O)c2ccc(F)cc2)[C@@]2(C(=O)Nc3ccccc32)[C@H]2c3ccccc3C=CN12
→ -1.3 | nt | i | 12.5 | 97.0 | 1.13 | nt
8) CCOC(=O)c1cccc(NC(=O)CCS(=O)(=O)c2ccc(Br)s2)c1
→ 0.4 | 74.2 | i | -1.2 | 103.1 | 0.86 | -30.8
9) CCOC(=O)c1c(N=CN(C)C)c(C#N)c2n1CCCC2
→ -1.9 | 103.2 | i | -3.8 | 185.1 | 0.96 | 56.2
10) CC(C(=O)O)c1n[nH]c(=O)c2ccccc12 (stereo unspecified)
→ -1.5 | nt | i | 1.9 | 89.0 | 1.08 | nt
11) CCN(C(=S)NC(=O)CCc1ccccc1)c1ccccc1
→ -0.1 | 101.6 | i | -2.3 | 120.5 | 1.01 | 14.3
12) Cc1cc(NC(=O)C2CCCC2)nc2c1c(=O)oc1ccccc12
→ -0.5 | 75.8 | i | -2.0 | 105.3 | 0.87 | 16.7
13) COc1ccc(NC(=O)/C(C#N)=C/c2c(C)nn(-c3ccc(F)cc3)c2Cl)cc1OC
→ 0.3 | 152.0 | i | 13.1 | 98.6 | 0.86 | -6.2
14) CC(C)(C)c1ccc(-c2noc(CCC(N)=O)n2)cc1
→ 0.5 | 52.4 | i | -3.0 | 77.0 | 0.81 | 60.0
15) COc1ccc(-c2nnn(CC(=O)N(CCO)C(C(=O)NC3CCCC3)c3ccncc3)n2)cc1 (stereo unspecified)
→ nt | 103.2 | i | 3.2 | 108.7 | 0.7 | 23.1
16) O=C(Nc1ccccc1)Oc1cccc(Br)c1
→ nt | nt | i | nt | 95.0 | 1.17 | nt
17) CCn1c(C(=O)NCc2ccccn2)cc2sccc21
→ -1.4 | nt | i | -2.5 | 98.6 | 1.12 | nt
18) S=c1nc(C23CC4CC(CC(C4)C2)C3)nc2sccn12
→ nt | 77.3 | i | -8.1 | 100.1 | 0.89 | -20.0
19) CCOC(=O)CSc1ccc2nnc(-c3cccnc3)n2n1
→ -3.4 | nt | i | 7.9 | 116.9 | 0.96 | nt
20) Cc1cccc(N=N/C(=C\O)C(=O)c2ccc(Br)cc2)c1
→ nt | 164.9 | nt | -3.8 | 100.7 | nt | -21.4
21) CCn1cc(C2C3=C(CC(C)(C)CC3=O)N(c3ccccc3)C3=C2C(=O)CC(C)(C)C3)c(C)n1
→ 0.4 | 123.5 | i | -2.7 | 113.7 | 1 | -54.5
22) CC(Sc1nnnn1-c1ccc(O)cc1)c1nc2ccccc2c(=O)[nH]1 (stereo unspecified)
→ nt | nt | i | nt | 89.0 | 1.02 | nt
23) O=C(Cn1nnc(-c2ccccc2)n1)N/N=C/c1cc([N+](=O)[O-])ccc1O
→ 0.5 | nt | i | -3.5 | 89.9 | 1.22 | nt
24) COc1cccc(C(=O)Nc2cccc(C(=O)N3CCOCC3)c2)c1
→ -1.1 | 83.8 | i | -9.1 | 100.4 | 0.82 | 65.7
25) Cc1csc(NC(=O)C(Cc2ccccc2)n2cccc2)n1 (stereo unspecified)
→ -0.4 | nt | i | -7.2 | 101.1 | 0.98 | nt
26) Cc1ccc(-n2ncc(C(=O)Nc3cc(Cl)cc(Cl)c3)c2C2CCNCC2)cc1C
→ nt | nt | i | -4.0 | 101.7 | 0.7 | nt
27) Cc1ccc(S(=O)(=O)N2CCCC2C(=O)Nc2ccc(O)cc2)cc1 (stereo unspecified)
→ -1.6 | nt | i | -1.0 | 104.5 | 1.16 | nt
28) COc1ccc(NC(=O)n2nc(OC(=O)c3cccs3)cc2N)cc1
→ nt | nt | i | 4.9 | 91.4 | 0.83 | nt
29) COc1cccc(C(=O)Nc2cc(Cl)c(O)c(Cl)c2)c1
→ nt | nt | i | nt | 103.2 | 0.79 | nt
30) CC(C)Oc1cccc(NC(=O)c2cnccc2C(F)(F)F)c1
→ nt | nt | i | nt | 102.4 | 0.95 | nt
31) Cc1ccc(Cl)cc1NC(=O)Cn1cc(C(F)(F)F)cc(Cl)c1=O
→ -1.1 | 111.3 | i | -0.9 | 97.5 | 0.95 | -30.0
32) Cc1ccc(NC(=O)c2ccc(-n3cccn3)c([N+](=O)[O-])c2)cc1
→ -2.3 | 182.4 | i | -9.5 | 102.0 | 0.85 | -27.0
33) O=C(OCc1cc(Cl)ccc1OC(F)F)c1cc(S(=O)(=O)O)ccc1O
→ -2.1 | 174.1 | i | 9.7 | 101.3 | 0.81 | 13.9
34) O=C1N=c2ccccc2=C1c1[nH]c(=S)[nH]c1O
→ -1.2 | nt | i | -8.5 | 97.7 | 0.88 | nt
35) NC(CCC(=O)O)C12CC3CC(CC(C3)C1)C2 (stereo unspecified)
→ nt | 82.8 | i | 15.3 | 104.3 | 1.06 | 19.1
36) COc1ccccc1N(CC(O)Cn1ccnc1C)S(=O)(=O)c1ccccc1 (stereo unspecified)
→ nt | nt | i | -11.1 | 101.0 | 0.82 | nt
37) O=C(NCC1CCCO1)NC12CC3CC(CC(C3)C1)C2 (stereo unspecified)
→ -1.4 | nt | i | -9.0 | 107.6 | 1.11 | nt
38) CCn1c(SCC(=O)Nc2nccs2)nnc1-c1ccc(S(=O)(=O)N2CCCCC2)cc1
→ -1.1 | 51.4 | i | -6.3 | 96.9 | 0.93 | -27.8
39) C=CCN1C(=O)c2ccccc2Sc2ccc(C(=O)N3CCN(C)CC3)cc21
→ -0.2 | nt | nt | -2.8 | 106.9 | nt | nt
40) CCc1nc2ccc(C(=O)Nc3ccc(NC(C)=O)cc3)cc2nc1CC
→ -0.2 | 81.4 | i | 1.8 | 97.9 | 0.89 | -28.1
41) CN(C)c1ccc(N2CC(C)(C)C2=O)cc1
→ nt | 50.7 | i | -2.6 | 121.3 | 0.82 | -15.0
42) O=C(Nc1ccc(N2CCOCC2)cc1)c1cccc(S(=O)(=O)N2CCCC2)c1
→ -4.0 | 188.1 | i | 1.6 | 100.3 | 0.77 | 9.6
43) CNNC(=O)C(C)NC(=O)c1ccc(Br)cc1 (stereo unspecified)
→ -1.3 | nt | i | -11.1 | 102.6 | 0.89 | nt
44) Nc1nc2nccc(-c3cccnc3)n2n1
→ nt | 109.1 | i | 2.1 | 97.5 | 0.86 | 21.4
45) Cn1cnnc1Sc1ccc(C(=O)NCCC(c2ccccc2)c2ccccc2)cc1[N+](=O)[O-]
→ -2.9 | 63.3 | i | 0.3 | 97.6 | 0.87 | -53.9

Five entries picked at random from the list so far:
Every second line gives: GALR2 ag | INS promoter inh cell count | HSV replic up | PKD1 kinase inh | RGS16-Gao | HSV replic up primary fold | INS promoter inh
44) Nc1nc2nccc(-c3cccnc3)n2n1
→ nt | 109.1 | i | 2.1 | 97.5 | 0.86 | 21.4
31) Cc1ccc(Cl)cc1NC(=O)Cn1cc(C(F)(F)F)cc(Cl)c1=O
→ -1.1 | 111.3 | i | -0.9 | 97.5 | 0.95 | -30.0
34) O=C1N=c2ccccc2=C1c1[nH]c(=S)[nH]c1O
→ -1.2 | nt | i | -8.5 | 97.7 | 0.88 | nt
39) C=CCN1C(=O)c2ccccc2Sc2ccc(C(=O)N3CCN(C)CC3)cc21
→ -0.2 | nt | nt | -2.8 | 106.9 | nt | nt
40) CCc1nc2ccc(C(=O)Nc3ccc(NC(C)=O)cc3)cc2nc1CC
→ -0.2 | 81.4 | i | 1.8 | 97.9 | 0.89 | -28.1

Individual results from the list:
COc1ccccc1N(CC(O)Cn1ccnc1C)S(=O)(=O)c1ccccc1 (stereo unspecified) in RGS16-Gao → 101.0
O=C(OCc1cc(Cl)ccc1OC(F)F)c1cc(S(=O)(=O)O)ccc1O in PKD1 kinase inh → 9.7

Next structures follow.
Every second line gives: GALR2 ag | INS promoter inh cell count | HSV replic up | PKD1 kinase inh | RGS16-Gao | HSV replic up primary fold | INS promoter inh
46) O=C(Cc1ccc2c(c1)CCCC2)Nc1ccc2ccccc2c1
→ -0.7 | 117.1 | i | -0.4 | 89.6 | 0.91 | 23.1
47) Cc1cc(C)nc(SCc2ccc(C(=O)N/N=C3\CCCC(=O)C3)cc2)n1
→ nt | 91.2 | i | -9.2 | 103.1 | 0.98 | -11.1
48) CCCN(Cc1cc2cc(C)ccc2[nH]c1=O)C(=O)c1cccc([N+](=O)[O-])c1
→ nt | nt | i | nt | 87.7 | 0.84 | nt
49) Cc1cc([N+](=O)[O-])nn1Cc1ccc(F)cc1
→ nt | nt | i | 2.3 | 101.6 | 0.91 | nt
50) CC(C)(C)C(=O)NC(NC(=S)Nc1ccc(S(N)(=O)=O)cc1)C(Cl)(Cl)Cl (stereo unspecified)
→ -0.3 | nt | i | 2.5 | 39.8 | 1.18 | nt
51) CN(C)C(=O)N1CCC(C(=O)NCc2cccs2)CC1
→ -2.7 | nt | i | -8.8 | 101.9 | 0.93 | nt
52) O=C(NCc1ccco1)c1ccc(CS(=O)(=O)Cc2ccc(Cl)cc2)o1
→ -3.3 | nt | i | -15.7 | 73.7 | 1.28 | nt
53) S=c1[nH]nc(Cc2cccs2)n1-c1cccc2ccccc12
→ -1.2 | 72.5 | i | 0.6 | 93.7 | 1.03 | -70.0
54) Cc1c(NC(=O)c2ccccc2)c(=O)n(-c2ccccc2)n1C
→ -0.2 | nt | i | -0.8 | 99.5 | 1.05 | nt
55) O=C(C1=C(O)C(=O)N(CCc2ccccc2)C1c1ccncc1)c1cc2ccccc2o1 (stereo unspecified)
→ nt | nt | i | 2.2 | 99.6 | 1.01 | nt
56) COc1ccc(Br)cc1CNC(=O)CCc1nc(-c2ccc(C)cc2)no1
→ -1.2 | 29.1 | i | 1.1 | 97.7 | 0.88 | -55.2
57) O=C1c2ccccc2-c2onc3ccc(N4CCCC4)c1c23
→ nt | 68.4 | ? | 1.6 | 105.3 | nt | -218.2
58) CC(C)n1c(SCC(=O)Nc2nc3c(s2)CCCC3)nc2c1c(=O)n(C)c(=O)n2C
→ 0.1 | 118.8 | i | -1.4 | 104.4 | 0.85 | 11.1
59) CCOC(=O)C1CCCN(CCC(C)c2ccccc2)C1 (stereo unspecified)
→ -3.0 | 84.2 | i | -2.5 | 196.8 | 1.03 | 0.0
60) CCn1c(SCC(=O)N2CC(=O)Nc3ccccc32)nnc1-c1ccoc1C
→ -0.8 | 140.1 | nt | -8.8 | 99.9 | nt | 17.1
61) CCn1nnnc1SCC(=O)N1CCCc2ccccc21
→ -1.2 | 67.2 | i | -5.1 | 108.3 | 1.06 | 50.0
62) COc1ccc2[nH]c3c(=S)nc[nH]c3c2c1
→ nt | 129.6 | i | 2.7 | 104.9 | 0.98 | 35.0
63) COc1ccccc1C(=O)NCC1CCN(c2ccc(S(=O)(=O)N3CCOCC3)cc2)CC1
→ 0.5 | 120.5 | i | 4.5 | 104.6 | 0.9 | -18.8
64) CN1/C(=C\C(=O)c2cccnc2Cl)C(C)(C)c2ccccc21
→ 1.4 | 73.4 | i | -1.4 | 101.5 | 0.86 | 12.0
65) CS(=O)(=O)c1ccc2nc(NC(=O)c3ccc(N4C(=O)CCC4=O)cc3)sc2c1
→ nt | nt | i | nt | 100.8 | 1.07 | nt
66) CCn1nnnc1SCC(=O)Nc1ccc2c(c1)OCO2
→ -1.5 | 112.2 | i | 1.6 | 110.6 | 0.92 | -14.3
67) C=CCn1c[n+](CC(=O)c2ccc(Br)s2)c2ccccc21
→ nt | nt | i | -2.8 | 95.4 | 0.98 | nt
68) Cc1cc(NC(=O)NC2CC(=O)N(c3ccc4c(c3)OCCO4)C2)no1 (stereo unspecified)
→ nt | 122.6 | i | -2.5 | 106.0 | 1.05 | 33.3
69) Cc1ccc(NC(=O)/C(=C/c2ccco2)c2ccccc2)c(C)c1
→ 90.9* | 87.9 | i | -5.1 | 109.3 | 0.92 | -4.2
